Beta cell apopt: inhibitors of cytokine-induced beta cell apoptosis, primary screen, luminescence | INS-1E cytokine-induced death, ATP luminescence, 48 h; percent of positive-control rescue, neutral wells zero | 300,000 compounds, 0.8% hits | protection from apoptosis, % (concentration not given with the values);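 active means all replicates at 75% or more, or half of them and the mean; inconclusive means half reach 75% but not the mean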;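 further: 0% = cytokine-treated negative control wells and 100% = positive control rescue; higher means more ATP so stronger rescue from cytokine killing; wells of about 40 µL received 100 nL stock; the first replicate is given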
AF4-AF9 inh: inhibitors of AF4 peptide binding to AF9, primary screen, biochemical, AlphaScreen, biotin-AF4 peptide, FLAG-AF9, single point; Protein AF-9 (Homo sapiens), P42568; inhibition, % at 10 µM; 350,000 compounds, 0.47% hits; AID 651704, 2012;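 active means every replicate reaching a set inhibition limit, whatever the replicate mean, cut at about 25% in these data; inconclusive means mean inhibition reaches that limit but some replicates miss it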;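 further: 0% = plate neutral control median and 100% = total signal loss; the record names both 10 and 1 µM as test concentration; the first replicate is given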
Target sequence (P42568 whole entry, looked up): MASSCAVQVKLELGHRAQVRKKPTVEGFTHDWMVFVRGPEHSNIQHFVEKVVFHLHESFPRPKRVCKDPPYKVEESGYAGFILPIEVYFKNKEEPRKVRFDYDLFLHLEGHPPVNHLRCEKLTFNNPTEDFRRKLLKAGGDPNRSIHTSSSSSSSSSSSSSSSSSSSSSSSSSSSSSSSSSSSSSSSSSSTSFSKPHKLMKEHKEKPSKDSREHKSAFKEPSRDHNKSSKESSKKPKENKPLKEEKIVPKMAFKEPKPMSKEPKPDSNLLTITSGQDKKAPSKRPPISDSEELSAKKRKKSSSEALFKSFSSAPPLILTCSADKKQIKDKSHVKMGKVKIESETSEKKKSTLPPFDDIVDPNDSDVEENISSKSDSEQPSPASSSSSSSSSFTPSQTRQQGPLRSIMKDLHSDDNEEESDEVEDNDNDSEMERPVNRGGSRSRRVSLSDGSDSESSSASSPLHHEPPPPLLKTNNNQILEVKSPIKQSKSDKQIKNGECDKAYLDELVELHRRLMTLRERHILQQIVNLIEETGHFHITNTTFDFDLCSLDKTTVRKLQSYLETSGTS
RanGTP-Impb inh: inhibitors of RanGTP-importin-beta interaction, primary screen, biochemical, FRET, CFP-Ran, YFP-importin-beta, homogeneous; cell-free CFP-Ran/YFP-importin-beta FRET ratio; 300,000 compounds, 1.1% hits; AID 2216, 2009; inhibition, % (no concentration beside the values); Ran GTPase (GTP-bound) - importin-beta complex;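 active means most replicates above 15%; inconclusive means exactly half above 15%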;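 further: 0% = DMSO wells and 100% = Ran loaded with GDP instead of GTP; wells of about 40 µL received 100 nL stock; the first replicate is given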
Calb FLC: C. albicans growth inhibition with fluconazole, primary screen, CaCi-2 strain, Alamar Blue fluorescence; C. albicans CaCi-2 (fluconazole-resistant clinical isolate) + fluconazole, 48 h; growth inhibition, % (concentration not given with the values); 300,000 compounds, 0.57% hits;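 active means most replicates above 75%; inconclusive means exactly half above 75%; inactive means most below 75%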;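 further: all wells also contain fluconazole at 8 µg/ml as a sub-toxic cotreatment; 0% = median of DMSO wells and 100% = median of geldanamycin control wells; wells of about 8 µL received 7.5 nL stock; the first replicate is given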
rRNA inh HTS: reduced GFP signal of wild-type E. coli, primary screen, bacterial rRNA inhibitor project, GFP/RFP fluorescence, OD600, single point | E. coli WT GFP vs humanized-ribosome RFP mutants, 24 h; hits give low values; DMSO median 0, no signal -100 | GFP signal change (wild-type ribosome), % (test concentration not listed) | 350,000 compounds, 1.6% hits;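 active means significant combined selectivity score with lowered wild-type GFP, culture density cut under 30%, mutant RFP and density less affected; inactive means any of these conditions unmet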; further: one replicate is shown; some compounds called inactive have numbers as strong as hits
Vif A3G: inhibitors of Vif binding to APOBEC3G peptide, primary screen, biochemical, TR-FRET, GST-Vif 1-94, biotin-A3G peptide, dose response retest (AID 1117319); Virion infectivity factor (Human immunodeficiency virus type 1 group M subtype B (isolate …; TR-FRET GST-Vif / biotin-A3G peptide binding; higher % means a stronger effect; test concentration not given here; strong numbers were not always called active; inhibition, %; hits with a dose series show IC50 in µM; 260,000 compounds, 0.57% hits;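 active means above the screen mean plus three standard deviations and confirmed in dose response; inconclusive means results disagree or hit not tested in dose response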;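 further: Vif residues 1-94 fused to GST binding biotinylated APOBEC3G peptide 110-148; 0% = full assay without inhibitor and 100% = GST in place of GST-Vif; retest series ran down from 100 µM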
A1 inh: caspase 3/7 activation in MEF A1-2A-BIM cells, primary screen, A1 inhibitor project, cell-based, luminescence, HTS; Caspase-Glo 3/7 luminescence, 3 h; percent of clofoctol response, vehicle zero; caspase activation, % (no concentration beside the values); 330,000 compounds, 0.066% hits;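 active means over half of replicate activation scores above 10%, or exactly half above 10 with the replicate mean above 10; inconclusive means replicate mean below 10 yet half the replicates above 10; inactive means over half of replicates below 10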;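 further: wells of about 30 µL received 50 nL stock; many hits fall short of the cut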
T cruzi repl: inhibitors of intracellular T. cruzi growth, primary screen, luminescence, NIH3T3 host cells; T. cruzi beta-gal in NIH3T3, 90 h; inhibition, % (test concentration not listed); 300,000 compounds, 1.4% hits; AID 1885, 2009;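 active means mean inhibition across valid replicates above about 55%, limit read from the data; inconclusive means mean below that limit but half or more replicates reach it; inactive means mean below it, under half of replicates reach it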;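 further: signal also drops with host cell toxicity which is not excluded here; 0% = plate median of DMSO wells and 100% = zero luminescence signal; higher percent means less beta-gal luminescence so fewer parasites; stock transfer was 50 nL into about 50 µL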
rRNA inh HTS OD600: also measured in rRNA inh HTS; calls as there; OD600 change, %; measured here: OD600 growth;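 optical density of the mix in the first replicate; 0 = DMSO median and -100 = no signal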
rRNA inh HTS RFP: also measured in rRNA inh HTS; calls as there; RFP signal change, %; measured here: RFP humanized mutant strains;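 first replicate; 0 = DMSO median and -100 = no signal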
* = called active by the depositor; u = inconclusive; x = not tested or not shown. The list is partial; the hit share may differ from the screen's.

SMILES | Beta cell apopt | AF4-AF9 inh | RanGTP-Impb inh | Calb FLC | rRNA inh HTS | rRNA inh HTS OD600 | rRNA inh HTS RFP | Vif A3G | A1 inh | T cruzi repl
C[N+]1(CC(O)COCC2COc3ccccc3O2)CCOCC1 (stereo unspecified) | 1.5 | 10.9 | -1.1 | -8.1 | 20.5 | 19.0 | 0.5 | -0.3% | -0.1 | -10.0
CC(=O)NC1=NC(=O)/C(=C/N2CCCCC2)S1 | -5.4 | x | 3.1 | 25.2 | x | x | x | 3.9% | 0.1 | -7.8
Cc1nn(Cc2ccc(F)cc2)c(C)c1NC(=O)c1noc2c1CCCCC2 | -5.0 | x | -0.3 | 0.1 | x | x | x | 0.3% | 0.5 | 28.8
CN1CCC(=C2c3ccccc3C(O)c3ccccc32)CC1 (stereo unspecified) | x | -10.0 | 4.5 | 3.1 | 19.9 | 24.4 | 0.3 | x | 0.5 | 37.8
Cc1nnc(SCC(=O)c2ccc(Cl)cc2)n(N)c1=O | -7.2 | -2.8 | x | x | 0.5 | 5.9 | 3.7 | 16.3% | -0.5 | x
CC1CC(C)CN(CC(O)COCCOc2ccc(Br)cc2)C1 (stereo unspecified) | 1.6 | x | -4.0 | -24.8 | x | x | x | 9.0% | 1.1 | 20.6
CCC(=O)NC(=S)NNC(=O)c1ccc(OC)cc1 | x | x | -0.9 | -6.2 | x | x | x | 15.3% | 0.0 | -12.5
CC(=O)Nc1cccc(C(=O)Nc2cccnc2)c1 | -7.6 | -4.8 | -3.8 | u | 7.3 | 2.0 | -1.0 | u | -0.3 | -4.6
COc1ccccc1C(=O)NCC(=O)Nc1ccc2c(c1)CCC2 | -2.1 | -0.6 | x | x | -0.8 | 0.3 | -4.9 | 3.2% | -2.4 | x
Cn1cccc1C(=O)OCC(=O)Nc1cc(C(C)(C)C)nn1-c1ccccc1 | x | x | -3.4 | -1.4 | x | x | x | -0.7% | -0.7 | 11.6
COC(=O)c1ccc(NC(=O)c2sc3nc(-c4ccccc4)cn3c2C)cc1 | 18.2 | x | 9.2 | -5.9 | x | x | x | -9.3% | -0.7 | 1.2
CCCCCn1nc(C(=O)N2CCc3ccccc32)c2ccccc2c1=O | -0.6 | 1.2 | x | x | -2.2 | -17.1 | 0.1 | 3.9% | -2.1 | x
CCCn1c(SCC(=O)N2CCCC(C)C2)nnc1-c1ccccn1 (stereo unspecified) | -11.5 | -1.9 | -0.7 | -16.5 | -6.1 | -4.6 | -3.9 | -7.3% | 1.3 | -4.6
Cc1ccc(OCC(=O)NNC(=O)C2CCN(c3nc(C)cc(C)n3)CC2)cc1 | x | -2.8 | -1.5 | 1.1 | 23.9 | 5.2 | -2.7 | -0.5% | -0.1 | 1.2
Fc1ccccc1NC(=S)Nc1ccc(CN2CCOCC2)cc1 | -4.8 | -1.5 | 6.2 | 0.6 | 7.0 | 7.2 | 3.1 | -6.1% | 0.3 | -5.2
COc1ccc(OC)c(/C=N/c2oc(-c3ccco3)c(-c3ccco3)c2C#N)c1 | -1.7 | x | 2.9 | 8.9 | x | x | x | u | -0.3 | -0.4
CC(C)c1ccc(NC(=S)Nc2cccc3ccccc23)cc1 | 7.7 | 5.3 | 0.0 | -5.0 | -36.8 | -70.2 | -1.4 | 2.5% | 0.3 | 20.0
Cc1cccc(CCN(CC(=O)NCc2ccc(F)cc2)C(=O)c2csnn2)c1 | -5.4 | -1.9 | 0.0 | -1.9 | -1.6 | 3.4 | 1.2 | x | -0.6 | 4.2
Cc1onc(C(=O)/C=C/N(C)C)c1C(=O)Nc1nccs1 | -4.8 | x | 1.7 | -6.3 | x | x | x | -0.9% | -0.6 | -8.0
Cc1ccc(C)c(NC(=O)c2ccccc2NC(=O)C2CCCO2)c1 (stereo unspecified) | -11.0 | -0.7 | 6.3 | -14.5 | -4.1 | -2.0 | 2.0 | u | -1.5 | 2.2
Cn1cc(Cl)c(-c2nc3ccccc3[nH]2)n1 | 0.3 | x | 1.4 | 0.0 | x | x | x | 22.1% | -6.6 | -11.0
O=C(COC(=O)c1cc(S(=O)(=O)N2CCOCC2)c(Cl)cc1Cl)c1ccc[nH]1 | 0.3 | 2.3 | x | x | 18.9 | 12.1 | 1.9 | 10.7% | -0.7 | x
Cc1ccccc1NC(=O)N1CCC(NC(=O)C2CCCCC2)CC1 | -0.6 | -0.6 | 0.8 | -3.9 | 6.5 | 8.5 | -2.3 | x | 0.2 | 2.0
CCc1ccc(OCc2cccc(C(=O)N/N=C\c3cnn(C)c3C)c2)cc1 | x | -1.2 | -0.8 | -8.3 | -2.8 | -1.5 | -0.2 | 5.4% | x | -11.1
CN(Cc1ccccc1)Cc1c[nH]c2ccccc12 | 4.0 | x | -3.1 | -10.4 | x | x | x | -0.8% | -0.1 | 55.3*

Continued.
SMILES | Beta cell apopt | AF4-AF9 inh | RanGTP-Impb inh | Calb FLC | rRNA inh HTS | rRNA inh HTS OD600 | rRNA inh HTS RFP | Vif A3G | A1 inh | T cruzi repl
Cc1occc1C(=O)NCc1nc(-c2ccc(Cl)cc2)no1 | 1.4 | 1.5 | 6.7 | 4.2 | 3.3 | -23.9 | 1.9 | x | 0.2 | 5.9
Cc1cc(C)cc(OCCN2CCOCC2)c1 | -0.9 | -4.3 | 6.6 | -2.8 | 15.0 | 19.1 | -2.4 | x | -0.3 | -10.6
COc1ccccc1NC(=O)c1ccc(C)s1 | -0.7 | x | u | 1.5 | x | x | x | 1.6% | -5.7 | 12.1
Cc1cc(C(=O)Nc2sccc2C(N)=O)c(C)o1 | -5.0 | 0.7 | x | x | 1.4 | 8.1 | 2.6 | 2.0% | -4.7 | x
Cc1ccccc1Nc1nnc(SCC(=O)c2cc3ccccc3o2)s1 | -3.0 | x | 4.6 | -0.7 | x | x | x | x | 1.0 | 8.9
O=C(CCc1ccccc1)Nc1ccccc1F | 0.1 | x | -2.4 | -12.3 | x | x | x | 4.3% | -6.4 | -7.1
CC(OC(=O)c1ccc2c(c1)OCCO2)C(=O)c1ccccc1 (stereo unspecified) | -6.2 | -0.4 | 5.9 | -6.3 | -4.1 | -7.7 | 1.1 | -5.1% | 0.2 | -1.6
COc1cccc(C(=O)NCCS(=O)(=O)NCc2cccs2)c1 | -0.2 | 3.1 | 2.5 | 2.5 | 2.1 | 3.8 | -0.4 | 3.2% | 0.2 | -1.3
Cc1nc(CN(C)C(=O)CC2C(=O)NCCN2Cc2ccc(F)cc2)cs1 (stereo unspecified) | x | -2.1 | 0.2 | -5.8 | 4.0 | -4.2 | -2.4 | 2.1% | -0.2 | -2.5
COc1cccc(NC(=O)Nc2cc(NC(=O)Nc3cccc(OC)c3)c(C)nc2C)c1 | -20.3 | x | -1.7 | -4.1 | x | x | x | -2.2% | 0.1 | -10.7
CC(=O)c1ccc(N2C(=NC(=O)C(C)C)SC3CS(=O)(=O)CC32)cc1 (stereo unspecified) | -2.0 | x | -2.2 | u | x | x | x | 0.3% | -0.1 | 0.0
CC/C(C)=C1\SC(N2CCN(c3cccc(C(F)(F)F)c3)CC2)=NC1=O | 0.7 | x | -4.7 | 22.1 | x | x | x | -2.3% | 2.1 | 10.7
CCc1ccc(N2CC(C(=O)Nc3cc(C)ccc3F)CC2=O)cc1 (stereo unspecified) | -2.0 | x | 1.0 | -6.7 | x | x | x | 6.2% | 0.1 | 7.4
COc1ccc(Nc2cc(C)nc(NCc3ccccc3)n2)cc1 | 59.9 | 19.5 | 1.4 | 3.3 | -14.7 | -29.7 | 18.8 | -3.0% | -0.2 | 60.7*
CC(C)CN1CCN(CC#Cc2ccccc2)CC1CCO (stereo unspecified) | -4.9 | 2.3 | -1.8 | -7.5 | 16.0 | 6.8 | 2.7 | x | 0.2 | -12.9
CC1CCCC(C)N1/N=C/c1ccccc1F (stereo unspecified) | -5.1 | 2.0 | -0.1 | -2.6 | 26.1 | 11.8 | 5.6 | -4.0% | 1.3 | -4.9
COc1cc(-c2[nH]ncc2CN(C)Cc2cc(C)[nH]n2)cc(OC)c1OC | 0.4 | -10.0 | 0.7 | -5.0 | 7.7 | -2.1 | -2.2 | 30.1% | -0.3 | -4.6
O=C(O)c1ccc2c(c1)OCCO2 | -3.1 | x | -1.4 | -7.2 | x | x | x | -4.8% | 0.0 | -6.6
Cc1c(NC(=O)C(C)Sc2nc3ccccc3c(=O)n2CCO)c(=O)n(-c2ccccc2)n1C (stereo unspecified) | -3.4 | x | -3.5 | -20.3 | x | x | x | 10.3% | 0.2 | -3.8
Cc1ccc(S(=O)(=O)N2CCN(C(=O)Cn3nc(C)c([N+](=O)[O-])c3C)CC2)c(C)c1 | -3.0 | 0.8 | 3.8 | 7.7 | 3.3 | 8.6 | -0.3 | x | -0.5 | 6.5
COC(=O)c1cn(NC(=O)c2cccc(OC)c2)c(=O)c2ccccc12 | -1.0 | x | -6.5 | 2.4 | x | x | x | -8.0% | 1.2 | 0.7
c1cnc2ncc3sccc3c2c1 | -0.8 | -1.7 | 0.2 | -10.5 | 5.7 | -0.2 | -1.9 | 1.3% | -2.1 | 7.1
COc1ccc(OC)c(-c2csc(NC(=O)C3c4ccccc4Oc4ccccc43)n2)c1 | 2.4 | x | -0.1 | -14.4 | x | x | x | x | u | 39.3
COc1cccc(-c2ccc(=O)n(CC(=O)Nc3cc4c(cc3NC(C)=O)OCCO4)n2)c1 | -0.5 | 3.0 | -1.1 | -8.3 | x | x | x | 9.9% | -0.5 | -0.3
CCC(=O)N1c2ccccc2-c2nnc(SC)nc2OC1c1ccc(N(C)C)cc1 (stereo unspecified) | 0.0 | 9.0 | -3.4 | -2.6 | -2.9 | -3.0 | -0.1 | 6.4% | 0.0 | 4.1
N#CC1=C(N)OC2=C(CC/C2=C\c2ccccc2Cl)C1c1ccccc1Cl (stereo unspecified) | -6.5 | -5.6 | x | x | 10.5 | 6.0 | 4.8 | 11.4% | 0.1 | 2.9
O=C(Nc1ccc(F)cc1)C1CCN(c2nnnn2-c2ccccc2)CC1 | 0.7 | x | 6.2 | 15.9 | x | x | x | -0.1% | 1.8 | -11.5
COc1ccc(C(=O)OCCN2C(=O)c3ccccc3C2=O)cc1 | -3.4 | x | -5.0 | -2.5 | x | x | x | -5.4% | -0.4 | 0.2
C=CCNC(=O)c1ccc([N+](=O)[O-])c(Cl)c1 | -2.7 | 0.1 | -0.5 | -2.4 | 10.6 | 11.6 | 0.6 | 7.9% | 0.4 | -19.9
